Beta2AR agonist: agonists of human beta-2 adrenergic receptor inducing internalization | P07550 | Am2.2-beta2AR cells, FAP receptor internalization, flow cytometry; reference of the scale not given here | response, % (concentration not given with the values) | 0.43% of 340,000 active;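 active = response above a set limit, near 3 SD of response in nonfluorescent compounds, cut at about 42% in these data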;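 note: stock transfer was 100 nL into about 11 µL; a reference agonist was the positive control; negative values mostly stem from fluorescent compounds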
Target sequence (P07550 whole entry, looked up): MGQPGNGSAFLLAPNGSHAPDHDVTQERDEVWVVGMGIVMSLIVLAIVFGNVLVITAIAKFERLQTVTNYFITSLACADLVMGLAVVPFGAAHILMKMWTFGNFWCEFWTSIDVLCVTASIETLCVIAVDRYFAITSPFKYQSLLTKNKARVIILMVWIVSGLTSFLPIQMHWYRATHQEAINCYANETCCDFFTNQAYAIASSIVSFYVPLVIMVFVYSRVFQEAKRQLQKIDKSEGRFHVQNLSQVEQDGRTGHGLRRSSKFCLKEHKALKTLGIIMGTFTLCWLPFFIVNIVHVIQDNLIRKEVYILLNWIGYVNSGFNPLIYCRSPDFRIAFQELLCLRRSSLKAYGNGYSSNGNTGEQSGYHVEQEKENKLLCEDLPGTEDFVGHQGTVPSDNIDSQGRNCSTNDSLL
T cruzi repl: blocks replication of Trypanosoma cruzi; inhibition, % (no concentration beside the values); T. cruzi beta-gal in NIH3T3, luminescence, 90 h; 1.4% of 300,000 active;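 active = mean inhibition across valid replicates above about 55%, limit read from the data; inconclusive = mean below that limit but half or more replicates reach it; inactive = mean below it, under half of replicates reach it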;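 note: signal also drops with host cell toxicity which is not excluded here; 0% = plate median of DMSO wells and 100% = zero luminescence signal; higher percent means less beta-gal luminescence so fewer parasites; stock transfer was 50 nL into about 50 µL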
UCH37 DUB inh: inhibitors of human deubiquitinating enzyme UCH37 | purified proteasome/UCH37, Ub-AMC cleavage fluorescence | inhibition, % (test concentration not listed) | 0.33% of 330,000 active;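 active = mean of two replicates above 20%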;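 note: 0% = compound-free wells with enzyme and 100% = wells lacking proteasome; stock transfer was 100 nL into about 20 µL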
Target sequence (Q9Y5K5 whole entry, looked up): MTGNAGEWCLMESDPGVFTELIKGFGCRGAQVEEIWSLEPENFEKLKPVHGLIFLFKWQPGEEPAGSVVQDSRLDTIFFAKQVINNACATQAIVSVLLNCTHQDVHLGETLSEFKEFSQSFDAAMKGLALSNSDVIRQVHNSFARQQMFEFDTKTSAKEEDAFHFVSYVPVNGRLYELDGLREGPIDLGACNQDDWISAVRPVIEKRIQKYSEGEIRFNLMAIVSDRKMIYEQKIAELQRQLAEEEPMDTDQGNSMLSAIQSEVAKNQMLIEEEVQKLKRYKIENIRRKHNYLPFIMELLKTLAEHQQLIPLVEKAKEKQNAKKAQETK
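System: Proteasome-associated human UCH37 deubiquitinase; Input: 0.15 nM proteasome in added enzyme buffer; Also added: Ub-AMC substrate from 1 µM stock; Incubation: 30 min compound-proteasome preincubation then 25 min substrate reaction, room temperature; Detection: fluorescence, ex 355 nm, em 460 nm; Read-out: % inhibition of Ub-AMC cleavage fluorescence; Benchmarks: no-proteasome and no-compound wells.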
Beta apoptosis: blocks beta cell apoptosis; protection from apoptosis, % (concentration not given with the values); 0.8% of 300,000 active; AID 435005; INS-1E cytokine-induced death, ATP luminescence, 48 h; percent of positive-control rescue, neutral wells zero;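 active = all replicates at 75% or more, or half of them and the mean; inconclusive = half reach 75% but not the mean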;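 note: 0% = cytokine-treated negative control wells and 100% = positive control rescue; higher means more ATP so stronger rescue from cytokine killing; wells of about 40 µL received 100 nL stock; the first replicate is given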
Bfl-1 A1 inh: inhibitors of the anti-apoptotic protein A1, read as caspase activation | MEF A1-2A-BIM cells, Caspase-Glo 3/7 luminescence, 3 h; percent of clofoctol response, vehicle zero | AID 2462 | 0.066% of 330,000 active | caspase activation, % (concentration not given with the values);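 active = over half of replicate activation scores above 10%, or exactly half above 10 with the replicate mean above 10; inconclusive = replicate mean below 10 yet half the replicates above 10; inactive = over half of replicates below 10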;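 note: wells of about 30 µL received 50 nL stock; many hits fall short of the cut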
RanGTP-Imp inh: inhibitors of RanGTP-importin-beta interaction, primary screen, biochemical, FRET, CFP-Ran, YFP-importin-beta, homogeneous. cell-free CFP-Ran/YFP-importin-beta FRET ratio. inhibition, % (test concentration not listed). 1.1% of 300,000 active. AID 2216;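 active = most replicates above 15%; inconclusive = exactly half above 15%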;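 note: 0% = DMSO wells and 100% = Ran loaded with GDP instead of GTP; wells of about 40 µL received 100 nL stock; the first replicate is given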
Calb FLC: affects C. albicans growth with fluconazole. C. albicans CaCi-2 (fluconazole-resistant clinical isolate) + fluconazole, Alamar Blue growth, 48 h. growth inhibition, % (concentration not given with the values). 0.57% of 300,000 active. AID 1979;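 active = most replicates above 75%; inconclusive = exactly half above 75%; inactive = most below 75%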;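 note: all wells also contain fluconazole at 8 µg/ml as a sub-toxic cotreatment; 0% = median of DMSO wells and 100% = median of geldanamycin control wells; wells of about 8 µL received 7.5 nL stock; the first replicate is given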
LANA-H2B inh: blocks KSHV LANA binding to histone H2A/H2B; Q9QR71; cell-free LANA-H2A/H2B peptide, fluorescence polarization; inhibition, % (no concentration beside the values); 0.6% of 320,000 active; AID 2629; in the data active = inhibition mostly above about 10%, no sharp cut-off; inactive = mostly below about 6.7%;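 note: stock transfer was 7.5 nL into about 10 µL; 0% = median of vehicle wells and 100% = median of positive control wells; one replicate is shown; the record names a cut of 25% in any replicate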
An asterisk follows results filed as active; u = inconclusive; x = no result given. This is a random part of the collection; overall some 4.3% were active at least once.

SMILES | Beta2AR agonist | T cruzi repl | UCH37 DUB inh | Beta apoptosis | Bfl-1 A1 inh | RanGTP-Imp inh | Calb FLC | LANA-H2B inh
CCOC(=O)c1cc2cc(OC)ccc2nc1C | -3.1 | -2.9 | -16.2 | -6.1 | 0.2 | 0.3 | 1.9 | 2.7
COc1ccc(NC(=O)C2CCCN(S(=O)(=O)c3c(C)[nH]c(=O)[nH]c3=O)C2)cc1OC (stereo not given) | -2.2 | -5.3 | 1.3 | 0.1 | -0.5 | -0.1 | 4.0 | -2.1
CC(C)NC(=O)CCn1nc(-c2ccc(Cl)cc2)c2ccccc2c1=O | -10.1 | 13.3 | 5.6 | x | -0.6 | -4.1 | 43.5 | 4.7
Cc1ccc(-c2csc(NC(=O)CN3CCOCC3)n2)cc1 | 1.0 | 2.7 | 2.6 | -4.8 | -0.8 | 11.6 | 4.2 | 3.0
CCN1CCN(Cc2ccc(NC(=O)CC3Oc4ccc(C)cc4NC3=O)cc2)CC1 (stereo not given) | 11.4 | -15.3 | 4.4 | 1.7 | 0.1 | 5.2 | 0.7 | -5.8
Cn1c(CO)cnc1SCC(=O)c1ccc(Cl)cc1 | 0.9 | 3.5 | 3.0 | x | -0.2 | 9.1 | -11.2 | -2.3
Cc1nn(Cc2ccc(Cl)c(Cl)c2)c(C)c1NC(=O)c1sc2ccccc2c1Cl | -1.5 | 34.1 | 3.3 | -2.6 | -0.1 | 1.1 | 2.5 | -2.5
Cn1c(CO)cnc1SCc1ccccc1 | 0.6 | -9.1 | -2.9 | -1.8 | -0.5 | 0.5 | -1.3 | -1.5
O=C(N/N=C\c1ccc(OCC(=O)N2CCCC2)cc1)C(=O)Nc1ccccc1F | -0.4 | -6.5 | x | -4.2 | 0.3 | -0.9 | -14.7 | -6.5
O=C(NC1CCCCCC1)c1ccc(-n2cnnc2)cc1 | 2.8 | -20.4 | 4.8 | -3.1 | 0.0 | -1.8 | 3.6 | 4.4
N#CCCCn1c(O)c(N=NC(=O)C(O)c2ccccc2)c2ccccc21 (stereo not given) | -11.3 | 3.0 | 10.1 | -1.3 | -0.3 | -0.9 | -6.1 | 1.9
CC(C)(C)c1cc(C(=O)Nc2cccc3ccccc23)ccn1 | 7.4 | -14.8 | 0.3 | 0.6 | -0.5 | 8.0 | 5.9 | 1.1
COC(=O)CCC(=O)OC1(C)C(=O)C=C2C=C(C3CC3)N(c3ccc(CO)cc3)C=C2C1=O (stereo not given) | x | -3.9 | x | -4.7 | 0.3 | 2.4 | 10.3 | 2.3
Cc1cccc(CSC(Nc2ccc(F)cc2)=C(C#N)C#N)c1 | 10.0 | 0.4 | 1.8 | 105.7* | -1.5 | 1.1 | 46.5 | -4.1
COC(=O)C1=CC(C(=O)c2cccs2)=NN(c2ccc(OC)cc2)C1C(=O)OC (stereo not given) | -1.9 | 18.6 | 0.3 | 19.8 | 0.8 | -8.9 | 2.6 | 4.4
O=c1[nH]c(-c2ccccn2)nc(C(F)(F)F)c1Br | 1.1 | 65.6* | 1.1 | 30.3 | -0.1 | -1.7 | 107.8* | 5.2
Cc1cc(NC(=O)CSc2nc3c(C)c(C)ccc3cc2C)no1 | 2.7 | -5.3 | -0.5 | 3.5 | -0.3 | 0.3 | -11.9 | -4.0
O=C(NCC1CCCO1)c1ccc(NC(=O)C2C3C=CC(C3)C2C(=O)O)cc1 (stereo not given) | -3.4 | -1.7 | 0.7 | x | -0.1 | -2.0 | 16.4 | 2.8
NCCCCCc1cn(CC(=O)NCCCCCCCCCCC(=O)N2CCNCC2)nn1 | 1.2 | x | 0.2 | 4.5 | 0.3 | x | x | -2.6
CCCOc1ccc(C(=O)O)cc1 | -4.0 | -17.0 | -2.4 | -1.1 | 0.2 | 1.3 | -0.1 | -2.4
C=C(C)CN=C1NN=C(c2cc(C)n(-c3ccc(C)cc3)c2C)CS1 | 1.7 | 10.0 | 1.2 | -5.8 | 0.3 | 1.6 | -16.6 | -3.9
CCc1ccc(OCC(=O)N(Cc2cccs2)C2CCS(=O)(=O)C2)cc1 (stereo not given) | -3.2 | 43.6 | 5.9 | -3.5 | x | 3.9 | -2.0 | 5.0
O=C(Cn1cnc2c(cnn2-c2ccccc2)c1=O)N1CCCc2ccccc21 | 0.8 | 0.3 | -0.8 | 2.8 | 0.1 | u | -13.0 | -0.7
O=C(CNC(=O)c1ccc(Cl)cc1)c1ccc(Cl)cc1 | -5.1 | 3.7 | 3.1 | -0.2 | -1.2 | -0.8 | 0.4 | 3.6
CCN(CC)CCOC(=O)c1ccc(Cl)cc1 | 2.9 | -7.1 | 4.8 | -0.9 | 1.1 | 2.7 | 3.2 | 3.3
CC(C)C(=O)Nc1ccc(NC(=O)c2ccccc2Cl)nc1 | -3.1 | -15.8 | 3.8 | -2.1 | -1.9 | 0.0 | -12.8 | -2.7
O=C1C2CC=CCC2C(=O)N1CC(=O)N(Cc1ccccc1)C1CCS(=O)(=O)C1 (stereo not given) | -1.3 | -6.5 | 3.9 | -1.3 | 0.2 | 1.6 | -9.2 | 3.2
COC(=O)CCCC(=O)Nc1c(F)c(F)c(F)c(F)c1F | -9.3 | -9.5 | 6.6 | -7.2 | -0.8 | u | -1.4 | 0.2
CCOC(=O)Cc1nnc(NC(=O)C(CC)Sc2nnc3c4ccccc4n(C)c3n2)s1 (stereo not given) | -8.4 | 3.1 | 6.0 | 5.9 | 0.0 | 0.5 | 0.5 | -1.2
c1cncc(-c2nc3c(ccc4ccccc43)[nH]2)c1 | -88.8 | 7.6 | -54.5 | 0.3 | -0.5 | -0.7 | 7.9 | -1.9
O=C(CSC(=S)N1CCSCC1)c1ccc(Cl)cc1 | -0.9 | 12.3 | 3.7 | 0.3 | -0.1 | u | 24.3 | -8.0
COc1ccc(CN2CCCC(C(=O)c3ccc(Cl)cc3)C2)cc1Cn1cccn1 (stereo not given) | 5.2 | 64.3* | 2.0 | 3.4 | -0.6 | -0.5 | -18.8 | -6.1
NC(=O)C1CCN(C(=S)c2cccs2)CC1 | 0.7 | 5.6 | 2.0 | -6.3 | 0.6 | 0.5 | -1.0 | 2.8
O=C(O)Cn1cc(C(=O)c2cccs2)c2ccccc21 | -2.1 | -22.1 | 9.8 | 2.3 | 0.0 | 2.2 | 0.1 | -0.7
Cc1csc(NC(C)c2nc3cc(C(F)(F)F)ccc3n2CCCO)n1 (stereo not given) | 0.6 | -8.0 | 3.8 | -2.6 | -0.4 | -1.2 | -11.6 | 2.3
CCCNC(=O)COc1ncnc2sc(C)c(C)c12 | -0.3 | 2.5 | 0.0 | -9.0 | 0.0 | -1.0 | -4.0 | 0.7
CCOc1ccc(S(=O)(=O)NCCC(=O)NC2=NCCS2)cc1 | -4.0 | x | 2.6 | x | -0.1 | x | 4.3 | 0.6
COc1ccc(CCCc2nnc(SCC(=O)NN)o2)c(C)c1 | -3.1 | -1.6 | -0.2 | -8.5 | 0.5 | 0.8 | -4.6 | -7.4
CCOc1ccc(NC(=O)c2cc(S(=O)(=O)N3CCOCC3)cs2)cc1 | 19.0 | 0.9 | 4.9 | 3.1 | 0.7 | u | 4.3 | -6.7
CCSc1sccc1C1C(C#N)=C(N)N(c2cccnc2)C2=C1C(=O)CCC2 (stereo not given) | 1.7 | 2.8 | 1.0 | -1.5 | 0.2 | u | 0.1 | -2.2
COCCn1c(CCC(=O)O)nc2c1c(=O)[nH]c(=O)n2CC(C)C | 2.4 | -0.4 | -1.8 | -1.8 | 0.5 | -4.3 | -11.1 | 6.2
Cn1c(NN)nc2sc3c(c2c1=O)CCC3 | 1.4 | -7.8 | 0.8 | -1.5 | 0.2 | 0.2 | 87.2* | 2.1
Cc1ccc2c(CC(=O)OCc3nc(N)nc(Nc4ccccc4C)n3)coc2c1 | 3.4 | 0.0 | 4.2 | -3.5 | -0.6 | -2.9 | 33.0 | 2.1
C[C@H](NC(=O)Nc1ccc2c(c1)OCCO2)C(=O)O | -3.6 | -14.6 | -0.5 | -1.3 | -1.0 | -0.2 | -10.3 | -0.2
O=C(CNC(=O)c1cccc(F)c1)OCC(=O)N1CCN(C(=O)c2ccco2)CC1 | -5.3 | -16.3 | 0.8 | -6.4 | 0.2 | -0.8 | 28.0 | 4.2
COc1cc(NS(=O)(=O)c2ccc3[nH]c(=O)[nH]c3c2)cc(OC)c1 | 1.0 | -28.7 | 2.7 | -8.7 | 0.1 | 3.3 | -4.0 | -0.5
CN(CC(=O)Nc1cc([N+](=O)[O-])ccc1Cl)Cc1ccc(Br)cc1 | 2.2 | 13.8 | 7.2 | 6.6 | 0.1 | -1.3 | -22.8 | -4.1
Cc1ccccc1N1CCN(Cc2nc(Cc3ccccc3F)no2)CC1 | -6.1 | 12.0 | 1.1 | -7.1 | 1.7 | 0.6 | -11.2 | 2.0
NC(=O)N/N=C/c1ccccc1OC(=O)c1cc2ccccc2oc1=O | -5.2 | -18.6 | x | -6.2 | 0.0 | 18.2* | 9.9 | -3.1
O=C(Nc1ccccc1F)C1CCCN(S(=O)(=O)c2ccccc2)C1 (stereo not given) | -2.1 | -3.6 | 2.7 | 5.2 | -0.1 | -2.7 | -8.1 | -0.3

Remaining list, next part
SMILES | Beta2AR agonist | T cruzi repl | UCH37 DUB inh | Beta apoptosis | Bfl-1 A1 inh | RanGTP-Imp inh | Calb FLC | LANA-H2B inh
COCCC(=O)N1CCC(Oc2ccc(C(=O)NCc3cccc(C)n3)cc2)CC1 | -5.4 | 0.4 | 0.5 | -4.7 | 0.5 | u | -7.9 | 4.1
CCOc1ccc2nc(SCC(=O)NCC3CCCO3)c(C#N)cc2c1 (stereo not given) | -16.0 | 0.5 | -10.2 | -2.7 | 0.4 | 3.4 | -2.2 | -7.2
C/C(=N\NC(=O)c1nc(C)cc(C)n1)c1ccccc1 | -0.5 | -27.7 | x | -0.2 | -4.1 | -1.5 | -2.0 | 4.0
Cc1ccc(C(=O)OCC(=O)NC2CC2)cc1S(=O)(=O)N1CCOCC1 | -1.3 | x | 2.0 | -0.6 | 0.4 | x | x | -3.0
CSc1nc(=S)n(-c2ccc([N+](=O)[O-])cc2)c(C)c1C(C)=O | 0.2 | -3.7 | 7.5 | x | -0.7 | 3.1 | 24.6 | 3.2
CN(CC(=O)NC1CCCc2ccccc21)S(=O)(=O)c1ccc2c(c1)c(=O)n(C)c(=O)n2C (stereo not given) | 0.1 | -3.1 | 3.3 | 1.7 | -0.2 | 9.4 | -3.6 | 0.9
Cc1ccc(S(=O)(=O)NCC(=O)NCc2cc(=O)n(C)c(=O)n2C)cc1C | -6.7 | 5.2 | 5.5 | -5.3 | -0.7 | -2.6 | x | -0.4

Source: PubChem BioAssay
